VCAM-1 up – enhancers of VCAM-1 display on endothelial cells, cell-based, plate reader, pooled HUVEC, TNFa stimulus (AID 455); HUVEC TNFa-induced VCAM-1 immunofluorescence, plate reader; numbers were filed only for top-ranked candidate wells; augmentation, % at 5 µM; 10,000 compounds, 0.2% hits;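 active means a compound raising TNF-alpha-driven VCAM-1 surface staining, with its hit status upheld on visual or statistical review; inactive means the rest, including hits rejected on review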;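 further: 0% = TNFa with vehicle and 100% = strongest image-checked hit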
26S disassembly – inhibitors of ATP-driven 26S proteasome dissociation, primary screen, biochemical, bead-based flow cytometry, GFP-tagged proteasome | anti-FLAG beads, GFP-proteasome disassembly | inhibition of disassembly, % (no concentration beside the values) | 24,000 compounds, 0.2% hits | AID 751, 2007;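 active means above 40%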;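 further: plate controls were ATP control with full disassembly for no effect and ATP-gamma-S intact proteasomes for full effect; higher percent means more bead fluorescence retained so stronger block of disassembly; stock transfer was 100 nL into about 10 µL; wells with too few beads may also be inconclusive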
Starred values were filed as active, the others as inactive; i = inactive; · = not tested or not shown. Some of the compounds tested; rates above refer to the full screens.

Value order – VCAM-1 up, 26S disassembly
CCCCCCC(N)CC(=O)O (stereo not given)
→ i, -0.1
CCCCNC(=O)c1c(N)n(CCCOC)c2nc3ccccc3nc12
→ i, 8.5
CCN(CC)CCOC(=O)c1cc2cc(COC)ccc2o1
→ ·, 1.4
Cc1ccc(-c2nc(CS(=O)CC(=O)N3CCC4(CC3)OCCO4)c(C)o2)cc1 (stereo not given)
→ i, -0.3
COc1cc(/C=N/n2cnnc2)ccc1OC(=O)N(C)C
→ i, -1.3
Cc1oc(-c2ccccc2F)nc1CS(=O)CC(=O)N1CCC2(CC1)OCCO2 (stereo not given)
→ ·, 1.5
O=C(c1cc(S(=O)(=O)N2CCOCC2)ccc1F)N1CCC2(CC1)OCCO2
→ ·, 0.0
Cc1ccc2c(c1)N(CCC(=O)N1CCC3(CC1)OCCO3)C(=O)CO2
→ ·, 0.5
COc1ccc(C(=O)N2CCCC2=O)cc1
→ i, 0.2
Cc1cccc(-n2c(-c3ccco3)nc3ccccc3c2=O)n1
→ i, -1.1

Profiles, looked up by structure:
`CCN(CC)CCOC(=O)c1cc2cc(COC)ccc2o1` in the list: VCAM-1 up = ·; 26S disassembly = 1.4
`Cc1cccc(-n2c(-c3ccco3)nc3ccccc3c2=O)n1` in the list: VCAM-1 up = i; 26S disassembly = -1.1

The main list resumes, repeating the four entries before the break.
Value order – VCAM-1 up, 26S disassembly
O=C(c1cc(S(=O)(=O)N2CCOCC2)ccc1F)N1CCC2(CC1)OCCO2
→ ·, 0.0
Cc1ccc2c(c1)N(CCC(=O)N1CCC3(CC1)OCCO3)C(=O)CO2
→ ·, 0.5
COc1ccc(C(=O)N2CCCC2=O)cc1
→ i, 0.2
Cc1cccc(-n2c(-c3ccco3)nc3ccccc3c2=O)n1
→ i, -1.1
CCOC(=O)N(c1ccccc1)P1(=S)OCC(C)O1 (stereo not given)
→ ·, -0.6
CCOC(=O)c1[nH]c(C)c(C(=O)N2CCC3(CC2)OCCO3)c1C
→ ·, -0.1
CCN1CCN(c2ncnc3ccc(Br)cc23)CC1
→ i, -1.8
C=CCn1c(O)c(C(C)=NCCCO)c(=O)[nH]c1=O
→ i, -2.0
O=C(CN1C(=O)CN=C(c2ccccc2)c2ccccc21)NCc1ccco1
→ i, 1.2
COc1cccc(-n2nc(C(=O)N3CCC4(CC3)OCCO4)c3ccccc3c2=O)c1
→ ·, -1.7
Cc1ccc(CN2CCN(CC(=O)N3CCC4(CC3)OCCO4)C2=O)cc1
→ ·, -2.5
O=C(c1ccccc1)c1cn(CC(=O)N2CCCC2)c2ccccc12
→ ·, -2.2
C=CCn1c(O)c(C(C)=NCc2cccnc2)c(=O)[nH]c1=O
→ i, -1.3
CC1(C)Cc2c(sc3c2C(=O)NC(c2cccnc2)N3)CO1 (stereo not given)
→ i, -0.1

Taken from the entries so far, 2 compounds:
Value order – VCAM-1 up, 26S disassembly
CCOC(=O)N(c1ccccc1)P1(=S)OCC(C)O1 (stereo not given)
→ ·, -0.6
CCOC(=O)c1[nH]c(C)c(C(=O)N2CCC3(CC2)OCCO3)c1C
→ ·, -0.1

Next entries.
Value order – VCAM-1 up, 26S disassembly
COc1ccc2nc(NC(=O)CCc3nc(C4=CCN(C)CC4)no3)sc2c1
→ ·, 0.5
COc1ccccc1N1CCN(Cc2cccc(OC)c2O)CC1
→ i, -1.3
O=P(C(c1ccc2c(c1)OCO2)N1CCOCC1)(N1CCOCC1)N1CCOCC1 (stereo not given)
→ ·, -0.6
C[C@]12CCC(=O)C=C1CC[C@@H]1[C@@H]2CC[C@]2(C)C(=O)CC[C@@H]12
→ i, 0.1
CCCCn1c(C)c(C(=O)OCC)c2c(CN3CCOCC3)c(O)ccc21
→ i, 0.1
CCN1c2nc3ccccn3c(=O)c2CC2(C(=O)N(C)C(=O)N(C)C2=O)C1C (stereo not given)
→ i, -1.0
CCn1c(=O)n(CC(=O)N2CCC3(CC2)OCCO3)c(=O)c2ccccc21
→ ·, -0.9
O=C1CC(C(=O)N2CCC3(CC2)OCCO3)CN1CCc1ccccc1 (stereo not given)
→ ·, 0.6
O=C(C1c2ccccc2C(=O)N2CCc3ccccc3C12)N1CCC2(CC1)OCCO2 (stereo not given)
→ ·, -0.1
CSc1ccc(C(=O)C(C)(C)N2CCOCC2)cc1
→ i, -2.6
CN(C)[C@@H]1C(=O)C(C(N)=O)=C(O)[C@@]2(O)C(=O)C3=C(O)c4c(O)ccc(Cl)c4[C@@](C)(O)C3C[C@@H]12 (stereo not given in full)
→ i, 1.1
O=C(Cn1ncc2c3ccccc3n(Cc3cccc(Cl)c3)c2c1=O)N1CCC2(CC1)OCCO2
→ ·, 3.9
CCOC(=O)C1=C(N)OC(C)=C(C(=O)OCCOC)C12C(=O)Nc1ccccc12 (stereo not given)
→ i, -1.5
CC(C)N1CC=C(c2c[nH]c3ccccc23)CC1
→ ·, 2.3
C=CCn1c(O)c(C(C)=Nc2ccc(N(CC)CC)cc2)c(=O)[nH]c1=O
→ i, 1.8
O=c1c2ccccc2[se]n1-c1ccccc1
→ i, -9.2
O=C(C1CCCN(S(=O)(=O)c2cccc3nsnc23)C1)N1CCC2(CC1)OCCO2 (stereo not given)
→ i, -1.0
O=C(NC1(C(F)(F)F)Oc2ccc(Cl)cc2O1)N1CCC2(CC1)OCCO2 (stereo not given)
→ i, -0.9
COc1ccc(S(=O)(=O)NC(CC(=O)N2CCC3(CC2)OCCO3)c2ccco2)cc1 (stereo not given)
→ i, 1.6
O=C(c1csc2c1CCCCC2)N1CCC2(CC1)OCCO2
→ ·, -0.9
O=C(CCCn1c(=O)[nH]c2cc(Cl)ccc2c1=O)N1CCC2(CC1)OCCO2
→ ·, 0.1
Cc1nc2cc(C(=O)N3CCC4(CC3)OCCO4)ccc2n1-c1ccc(Br)cc1
→ ·, 4.9
O=C(CN1C(=O)CCSc2ccccc21)N1CCC2(CC1)OCCO2
→ ·, 0.1
O=C(Cn1cnc2sc3c(c2c1=O)CCCC3)NCCC(=O)N1CCC2(CC1)OCCO2
→ ·, -0.7
O=C1OCCC1NC1=NCCC1 (stereo not given)
→ i, 0.3
C[N+]1(C)CCc2cc3c(cc2[C@H]1[C@@H]1OC(=O)c2c1ccc1c2OCO1)OCO3
→ i, 0.5
CC(NC(=O)Oc1ccccc1)C(c1cccs1)N1CCOCC1 (stereo not given)
→ ·, 0.8
CC(=O)[C@@]1(O)CC[C@H]2[C@@H]3CC=C4C[C@@H](O)CC[C@]4(C)[C@H]3CC[C@@]21C
→ i, 0.4
CN1C(=O)CN=C(c2ccc(Cl)cc2)c2cc(Cl)ccc21
→ i, -2.0
Cc1ccc(CC2C(=O)N(C)C(=O)N(C)C2=O)s1
→ i, 2.3
COc1ccc(N2CCN(CCCN)CC2)cc1
→ i, -0.5
O=C1CC(N2CCC(n3c(=O)[nH]c4ccccc43)CC2)C(=O)N1c1ccc(F)cc1 (stereo not given)
→ i, 1.2
Cc1[nH]c2c(Cl)cccc2c1CCN
→ i, 5.6
O=C(c1ccc(CNS(=O)(=O)c2ccccc2)cc1)N1CCC2(CC1)OCCO2
→ ·, -1.7
Clc1ccc(CSC(Cn2ccnc2)c2ccc(Cl)cc2Cl)cc1 (stereo not given)
→ i, 0.9
O=C(c1cccc(N2CCCC2=O)c1)N1CCC2(CC1)OCCO2
→ ·, 3.5
C=CCOC(=O)COc1cc(C)cc2oc(=O)c3c(c12)CCC3
→ i, 2.1
Cc1ccccc1-c1nc(CS(=O)CC(=O)N2CCC3(CC2)OCCO3)c(C)o1 (stereo not given)
→ ·, -0.8
CC(=O)C1C2c3ccccc3OC1(C)N=c1s/c(=C/c3cnn(C)c3)c(=O)n12 (stereo not given)
→ ·, 1.4
Cc1ccc(S(=O)(=O)Nc2cc(C(=O)N3CCC4(CC3)OCCO4)ccc2N2CCCCC2)cc1
→ ·, -2.1

Overlap with the part before: 2 entries, then new ones.
Value order – VCAM-1 up, 26S disassembly
CC(=O)C1C2c3ccccc3OC1(C)N=c1s/c(=C/c3cnn(C)c3)c(=O)n12 (stereo not given)
→ ·, 1.4
Cc1ccc(S(=O)(=O)Nc2cc(C(=O)N3CCC4(CC3)OCCO4)ccc2N2CCCCC2)cc1
→ ·, -2.1
CC1CCN2c3nc4ccccn4c(=O)c3CC3(C(=O)N(C)C(=O)N(C)C3=O)C2C1 (stereo not given)
→ i, 0.5
COc1ccccc1N1CCN(Cc2c(F)cccc2F)CC1
→ i, 1.5
Clc1ccc(COC(Cn2ccnc2)c2ccc(Cl)cc2Cl)c(Cl)c1 (stereo not given)
→ i, 0.1
NC(=O)CSP(=O)(c1ccccc1)c1ccccc1
→ i, 1.2
CC(CCc1ccccc1)NC(C)C(O)c1ccc(O)cc1 (stereo not given)
→ i, -3.2
OCC12COC3c4ccccc4C(OC1)N32 (stereo not given)
→ i, 2.5
NCCc1c[nH]c2ccc(F)cc12
→ ·, 1.4
CCN(CC)CCN=Cc1c(O)n(CCC2=CCCCC2)c(=O)[nH]c1=O
→ i, -3.4
CNCC(O)c1ccc(O)cc1 (stereo not given)
→ i, -0.9
COC(=O)c1ccccc1-n1c(C)nc2ccccc2c1=O
→ i, 0.1

Other structures:
mol | VCAM-1 up | 26S disassembly
CC(C)OCCCNC(=O)c1c(N)n(CC2CCCO2)c2nc3ccccc3nc12 (stereo not given) | i | 7.7
CC1(C)CN=C(Nc2ccc(F)c(F)c2)S1 | · | -1.7
CCOc1cc(C2NCc3ccccc3-n3cccc32)ccc1O (stereo not given) | · | 0.5
O=C(c1ccc2nc3ccc(Cl)cc3c(=O)n2c1)N1CCC2(CC1)OCCO2 | i | 1.5
Cc1cc(C)n2nc(SCC(=O)N3CCC4(CC3)OCCO4)nc2n1 | · | 0.2
Cc1ccc(S(=O)(=O)N2CCC(C(=O)N3CCC4(CC3)OCCO4)CC2)cc1 | · | -0.8
Cc1[nH]c2c(C(F)(F)F)cccc2c1CCN | · | 1.2
O=C(Cn1c2c(c(-c3ccccc3Cl)cc1=O)CCC2)N1CCC2(CC1)OCCO2 | i | 0.5
O=C1C2CCCN2C(c2cccnc2)N1c1nccs1 (stereo not given) | · | 1.1
CCOC(=O)C1=C(C)OC(N)=C(C(=O)OC)C12C(=O)Nc1ccc(Br)cc12 (stereo not given) | · | -0.2
C[C@H]1OC[C@@H](C[N+](C)(C)C)O1 | i | 0.5
CCOC(=O)C(O)(c1ccc(N(CC)C(=O)OC)cc1)C(F)(F)F (stereo not given) | i | -3.3
CCNc1ccc(P(=S)(N(C)C)N(C)C)cc1 | i | -1.6
O=S1(=O)CC2(N3CCOCC3)CCCCCCC21 (stereo not given) | · | -1.4
CC1(C)CN=C(Nc2ccccc2C(F)(F)F)S1 | · | -0.1
C(#CCN1CCOCC1)COCC#Cc1ccccc1 | i | -2.9
O=C(O)Cn1cc(C(=O)c2ccccc2)c2ccccc21 | i | -7.6
CCn1c(C(=O)N2CCC(C(=O)N3CCC4(CC3)OCCO4)CC2)cc2sccc21 | · | -1.3
CCOc1c(P(=S)(N(C)C)N(C)C)c(C)nn1-c1ccccc1 | i | -2.4
O=c1[nH]c2ccccc2n1CCCN1CCC(n2c(=O)[nH]c3cc(Cl)ccc32)CC1 | i | 1.0
O=C(NCC(c1cccnc1)N1CCOCC1)Oc1ccccc1 (stereo not given) | · | -1.4
O=C1C2CCCN2C(c2ccc(Cl)c(Cl)c2)N1c1ccccn1 (stereo not given) | i | -1.0
Cc1ccc(CS(=O)(=O)CCC(=O)N2CCC3(CC2)OCCO3)cc1 | i | -2.7
C[C@H]1CCCC(=O)CCCCCc2cc(O)cc(O)c2C(=O)O1 | i | 0.6
Cc1cc(C)n2nc(C)[n+](C)c2n1 | · | 2.2
CC(C)[C@H]1C(=O)N2CCC[C@H]2[C@]2(O)O[C@](NC(=O)[C@@H]3C=C4c5cccc6[nH]cc(c56)C[C@H]4N(C)C3)(C(C)C)C(=O)N12 | i | 12.7
CC(=NCCCO)c1c(O)n(Cc2ccccc2)c(=O)[nH]c1=O | i | 0.2
CC(C)(C)C(O)C(Oc1ccc(Cl)cc1)n1cncn1 (stereo not given) | i | -0.3
COc1ccc(-c2nc(CS(=O)CC(=O)N3CCC4(CC3)OCCO4)c(C)o2)cc1 (stereo not given) | · | -2.3
CC(N)C(=O)c1ccco1 (stereo not given) | · | 2.1
Cc1c(C(=O)N2CCC3(CC2)OCCO3)oc2ccc(S(=O)(=O)N3CCOCC3)cc12 | · | 0.1
O=C(c1cccs1)C1CN2CCC1CC2 (stereo not given) | i | 3.3
CCC1(CC)C(=O)NC(=NCCc2c[nH]c3ccccc23)NC1=O | · | -1.1
CC[N+]1(C)CCCC(OC(=O)C(O)(c2ccccc2)c2ccccc2)C1 (stereo not given) | i | -0.6
CCN1c2nc3c(C)cccn3c(=O)c2CC2(C(=O)N(C)C(=O)N(C)C2=O)C1C (stereo not given) | i | 0.0
CC(=O)Nc1ccc(OC(=O)c2ccccc2N)cc1 | i | 2.2
CCOc1ccc(-c2cc(C(=O)N3CCC4(CC3)OCCO4)c3ccccc3n2)cc1 | · | 0.1

Source: PubChem (several laboratories)
